Bioassay records deposited in PubChem BioAssay by Johns Hopkins Ion Channel Center.
KCNQ2 inh = KCNQ2 potassium channel inhibitors, primary screen, cell-based, CHO-K1, FluxOR thallium flux, B-score (AID 2156) | Potassium voltage-gated channel subfamily KQT member 2 (Rattus norvegicus), O88943 | 20 min; active compounds read low; only compounds with negative scores are shown here; some inactives read as strong as hits | B-score at 10 µM | 310,000 compounds, 1.1% hits;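 active = fluorescence ratio B-score at most minus 3 library SDs, with starting brightness B-score within 2 library SDs, cut at about -5.5 in these data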
Target sequence (O88943 whole entry, looked up): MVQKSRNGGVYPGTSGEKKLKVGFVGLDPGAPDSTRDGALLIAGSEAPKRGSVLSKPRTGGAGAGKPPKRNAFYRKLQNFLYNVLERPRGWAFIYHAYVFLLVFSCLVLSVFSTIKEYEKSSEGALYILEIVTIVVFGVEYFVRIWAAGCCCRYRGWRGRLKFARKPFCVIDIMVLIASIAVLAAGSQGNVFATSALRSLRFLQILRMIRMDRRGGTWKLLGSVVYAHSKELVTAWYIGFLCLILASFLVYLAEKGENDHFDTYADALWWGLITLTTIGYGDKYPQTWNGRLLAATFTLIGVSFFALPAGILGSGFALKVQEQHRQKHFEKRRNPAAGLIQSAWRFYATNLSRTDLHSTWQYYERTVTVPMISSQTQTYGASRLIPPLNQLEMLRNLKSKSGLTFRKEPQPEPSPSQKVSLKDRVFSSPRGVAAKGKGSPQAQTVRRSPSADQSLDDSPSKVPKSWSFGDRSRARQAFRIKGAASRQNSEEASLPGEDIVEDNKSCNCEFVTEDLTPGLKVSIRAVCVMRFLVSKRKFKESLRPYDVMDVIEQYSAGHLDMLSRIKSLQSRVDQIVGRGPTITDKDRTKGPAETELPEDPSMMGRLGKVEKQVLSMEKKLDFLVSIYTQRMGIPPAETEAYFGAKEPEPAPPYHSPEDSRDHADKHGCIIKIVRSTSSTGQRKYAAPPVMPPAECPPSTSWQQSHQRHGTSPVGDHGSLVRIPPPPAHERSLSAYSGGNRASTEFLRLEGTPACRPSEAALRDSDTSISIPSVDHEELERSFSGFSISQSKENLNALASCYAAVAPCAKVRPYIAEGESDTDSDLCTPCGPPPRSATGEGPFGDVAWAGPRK
KCNQ2 inh baseline = further read-out of KCNQ2 inh, marked with its call; B-score; measured here: initial fluorescence intensity artifact check;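 brightness before thallium and not channel activity; 0 = typical well and far values either way flag optical interference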
Active calls of the source: *; i = inactive.

The opening 2 compounds as a preview:
SMILES | KCNQ2 inh | KCNQ2 inh baseline
CC(C)(C)c1nc2c(Br)cc(Br)cc2c(=O)o1 | i | 0.89
CSc1ccccc1-c1n[nH]c(=S)o1 | i | 0.03

The listing, previewed entries included:
SMILES | KCNQ2 inh | KCNQ2 inh baseline
CC(C)(C)c1nc2c(Br)cc(Br)cc2c(=O)o1 | i | 0.89
CSc1ccccc1-c1n[nH]c(=S)o1 | i | 0.03
Cc1ccc(S(=O)(=O)N2CCC(C(=O)OCC(=O)N3CC(=O)Nc4ccccc43)CC2)cc1 | i | 0.9
COc1ccc(-c2cnnc(N/N=C/c3c(C)nn(-c4ccccc4)c3Cl)n2)cc1 | i | -0.23
Cc1nc2nc(C)c(CCC(=O)N3CCN(c4ccccn4)CC3)c(C)n2n1 | i | 0.49
O=C(Nc1ccccc1C(=O)N1CCCC1)C1COc2ccccc2O1 (stereo unspecified) | i | -1.2
CCC(CC)C(=O)N1c2ccc(F)cc2CCC1C (stereo unspecified) | i | -1.4
CN(C)CCCNCCCNC(=O)/C(=N\O)c1ccccc1 | i | 1.2
Cc1cc(C(=O)NCc2cccs2)n(-c2ccccc2)n1 | i | -1.6
CC1(C)Cc2nc3oc4c(SCC(N)=O)ncnc4c3cc2CO1 | i | 0.92
CN(CC(=O)Nc1c(Cl)cccc1Cl)C(=O)C1CCN(C(=O)Nc2ccccc2)CC1 | i | -0.38
CC(C)(C)c1nnc2sc(SCC(=O)c3cccs3)nn2c1=O | i | 4.3

4 of the compounds above, with two lines to a compound:
Below each compound – KCNQ2 inh	KCNQ2 inh baseline
COc1ccc(-c2cnnc(N/N=C/c3c(C)nn(-c4ccccc4)c3Cl)n2)cc1
    i	-0.23
Cc1nc2nc(C)c(CCC(=O)N3CCN(c4ccccn4)CC3)c(C)n2n1
    i	0.49
O=C(Nc1ccccc1C(=O)N1CCCC1)C1COc2ccccc2O1 (stereo unspecified)
    i	-1.2
CCC(CC)C(=O)N1c2ccc(F)cc2CCC1C (stereo unspecified)
    i	-1.4

(continued)
SMILES | KCNQ2 inh | KCNQ2 inh baseline
O=C(NNC(=S)Nc1ccc(F)c(Cl)c1)C1CC1 | i | -0.2
FC(F)(F)c1cc(-c2cccs2)nc2cc(-c3cccs3)nn12 | i | -0.62
CCN(CC)CCCCCC(=O)Nc1ccccc1C(=O)Nc1ccccc1 | i | 2.4
Cc1cccc(C)c1C(OCCN(C)C)C1CCCCC1 (stereo unspecified) | i | 0.51
CCCOC1CCCN(C(=O)CCc2nnc(CCCCc3ccccc3)o2)C1 (stereo unspecified) | i | -0.86
CC1CCC(NC(=O)c2nc(Cn3ccc([N+](=O)[O-])n3)no2)CC1 (stereo unspecified) | i | 0.77
Cc1ccccc1N=C1SC(CC(=O)Nc2ccc3ccccc3c2)C(=O)N1Cc1ccccn1 (stereo unspecified) | i | 0.35
CC1CCCN(CCOc2ccc3ccccc3c2Br)C1 (stereo unspecified) | i | -0.85
Cc1ccc(C(=O)c2cc([N+](=O)[O-])ccc2N2CCCCC2)cc1C | i | 2.8
CCCc1cc(C(=O)NNC(=S)NCc2ccccc2)cs1 | i | 0.02
Cc1cc(C)cc(C(=O)NC(CC(N)=O)c2ccc(N3CCCCCC3)c([N+](=O)[O-])c2)c1 (stereo unspecified) | i | 2.5
O=C(CN(c1ccc(Br)cc1)S(=O)(=O)c1ccc(Cl)c([N+](=O)[O-])c1)NCCc1ccccc1 | i | 2.6
COc1ccc([N+](=O)[O-])cc1NC(=O)C(C)N1CCCC1 (stereo unspecified) | i | 0.01
CCCCCc1nnc(NC(=O)c2ccc(N3CCCC3=O)cc2)s1 | i | -1.4
Cc1ccc(NC(=O)CN(C)S(=O)(=O)c2ccc3c(c2)n(C)c(=O)c(=O)n3C)c(C)c1 | i | -0.11
O=C(CSc1nnnn1C1CCCC1)NCc1cccs1 | i | -0.01
COc1ccc(C/C(C)=N/NC(=S)Nc2ccc(Cl)cc2)cc1 | i | -1.9
CC(OC(=O)c1ccc(-c2ccc(O)cc2)cc1)C(=O)NC1CCCCC1C (stereo unspecified) | i | -0.2
Cc1ccc(N2C(=O)CC(C3CCCO3)C2=O)cc1 (stereo unspecified) | i | 0.83
O=C(/C=C/c1c[nH]c2ccccc12)c1cccc2ccccc12 | i | -0.25
COc1ccc(NC2C=CS(=O)(=O)C2)cc1 (stereo unspecified) | i | 0.62
CC(=O)N/C(=C\c1ccc(F)cc1)C(=O)OCc1ccccc1 | i | -0.45
Cc1ccc(OCC(=O)N2CCN(S(=O)(=O)c3ccccc3[N+](=O)[O-])CC2)cc1 | i | -0.4
Oc1[nH]c2ccccc2c1/C=N/N1CCCCC1 | i | 0.01
Clc1ccc(Nc2nc3ccccc3n3nnnc23)cc1 | i | -1.7
O=C(Nc1cc(Cl)ccc1Oc1ccccc1)c1ccccc1F | i | -0.08
COc1cccc2c1OC1(CCN(C(C)C)CC1)N1N=C(c3cccnc3)CC21 (stereo unspecified) | i | -0.38
O=S(=O)(Cc1ccccc1)N1CCNCC1 | i | 0.18
Cc1ccc(Oc2nc3ccccn3c(=O)c2/C=C(\C#N)C(=O)NC2CCS(=O)(=O)C2)cc1 (stereo unspecified) | i | 0.83
COc1ccc(F)cc1C(=O)C1CCCN(C(=O)c2ccccc2N(C)C)C1 (stereo unspecified) | i | -0.31
COc1ccc(CCC(=O)OCC(=O)N(CC(C)C)c2c(N)n(Cc3ccccc3)c(=O)[nH]c2=O)cc1 | i | 1.5
CCc1ccccc1NC(=O)c1cccc(NC(=O)/C=C/c2ccco2)c1 | i | -1.5
CCn1c(=O)c(=O)[nH]c2c(=O)oc3ccc(S(=O)(=O)Nc4ccccc4)cc3c21 | i | -2
CC(C)(O)/C=C1/Oc2ccccc2C1N1CCCCC1 (stereo unspecified) | i | 1.4
CCOc1cc(S(=O)(=O)NC2CC2)c(OCC)cc1-n1cnnn1 | i | 0.44
Cc1cccc(C)c1N(CC(=O)NC1CCCCC1)C(=O)c1csnn1 | i | 1.5
CN(C)S(=O)(=O)N(CC(=O)NCCSCc1ccccc1)c1ccccc1 | i | -0.2
N=c1c(C(=O)NCc2ccccc2)cc2c(=O)n3ccccc3nc2n1Cc1ccco1 | i | 1.4
Cc1ccc(-n2ncc3c(=O)n(CC(=O)N4CCCCCC4)cnc32)cc1 | i | 1.6
Cn1c2ccccc2c2c(C(=O)N3CCN(c4ccc(F)cc4)CC3)cn(C3CCCC3)c(=O)c21 | -6* | 0.08*
Cc1ccc2c(C)c(C(=O)N(C)Cc3ccncn3)oc2c1C | i | 0.02
CCCc1cc(=O)oc2c(C)c(OCC(=O)N3CCC(C(=O)O)CC3)ccc12 | i | 1.3
O=C(COC(=O)CN1C(=O)COc2ccccc21)NC1CCCCC1 | i | 0.04
CC(=O)Nc1ccc(-c2cc(-c3ccccc3)nc(-c3ccccc3)n2)cc1 | i | 0.92
C=CCOC(=O)COc1ccc2c(C)c(C)c(=O)oc2c1 | i | -1.5
CCOC(=O)Cc1nnc(NC(=O)c2ncn[nH]2)s1 | i | 0.21
Cc1ccc(N2NC(=O)/C(=C\c3cc4c(cc3[N+](=O)[O-])OCO4)C2=O)cc1C | i | 0.03
CCc1c(O)nc(SCC(N)=O)n(-c2ccccc2F)c1=O | i | 0.02
Cc1c(N=Cc2cc3c(cc2[N+](=O)[O-])OCO3)cccc1[N+](=O)[O-] | i | -1.9
O=C(CNC(=O)/C=C/c1ccccc1)N=Nc1c(O)n(Cc2ccccc2)c2ccccc12 | i | -1.8
CCc1ccc(C(=O)COC(=O)c2cccs2)cc1 | i | 0.13
CCOC(=O)N1CCN(C(=O)c2cn(CC)c3ccc(S(=O)(=O)N4CCCCC4)cc3c2=O)CC1 | i | -1.3
CSc1cccc(N=C2C(=O)Nc3ccccc32)c1 | i | -1.8
CCCCN(C)C(=O)CCCc1c[nH]c2ccccc12 | i | 1.5
CCN(CC)C(=O)CSc1nc2cc3c(cc2c(=O)n1CCCC(=O)NCCc1ccc(OC)c(OC)c1)OCO3 | i | 0.93
Cc1ccc2cc3c(NC(=O)c4ccco4)nn(CC(C)C)c3nc2c1 | i | -0.11
C=C1SC(=Nc2ccccc2Cl)N(C(=O)c2sc3ccccc3c2Cl)C1(C)C | -5.8* | 0.45*
COc1ccc(N2C(=O)c3ccccc3NC2c2ccc(OC)c(Cn3cc([N+](=O)[O-])cn3)c2)cc1 (stereo unspecified) | i | 0.26
Cc1nc2scc(-c3cccs3)c2c(=O)o1 | i | 0.55
Cc1ccc(C)c(-n2cc(CN3CCCN(C=O)CC3)c(-c3ccccc3)n2)c1 | i | -0.33
Continuation:
SMILES | KCNQ2 inh | KCNQ2 inh baseline
CCOCCCn1c(=NC(=O)c2ccco2)c(C(=O)OCC)cc2c(=O)n3cccc(C)c3nc21 | i | -0.58
Cc1nnsc1NC(=O)OCCCl | i | -1.1
Cc1ccc(/C=C2\OC(=O)c3ccccc32)cc1 | i | 2.1
COc1ccccc1N1CCN(C(=O)C2CCCO2)CC1 (stereo unspecified) | i | 1.4
CCN(CC)CCN(C(=O)c1ccc2ncsc2c1)c1nc2cc3c(cc2s1)OCO3 | i | -0.15
CCCC(=O)OCCNc1cc(Sc2nccn2C)c2nonc2c1[N+](=O)[O-] | i | -3.9
O=C(CCCNS(=O)(=O)c1ccccc1)NCc1ccco1 | i | 0.71
COc1ccc(/C=N/NC(=O)c2ccco2)cc1OCc1ccccc1 | i | 1.5
Cc1ccnc2nc(C(=O)OCCOc3cccc(Br)c3)nn12 | i | -0.95
CC(CN1CCOCC1)OC(=O)c1ccccc1 (stereo unspecified) | i | 0.02
CC(C)(C)C(=O)Nc1ccc(-c2csnn2)cc1 | i | -1.2
O=C(Cn1c2ccccc2c(=O)c2cc([N+](=O)[O-])ccc21)Nc1ccccc1Cl | i | 0.09
CC(C)[C@H](CN(N=O)[C@@H](Cc1ccccc1)CN(C)N=O)N(CCc1ccccc1)N=O | i | -0.63
Cc1ccccc1-c1nc(CN2CCC(C(=O)NC3CCCCC3)CC2)c(C)o1 | i | 1.7
COC(=O)c1sc2nc(CSc3ccc(Br)cc3)[nH]c(=O)c2c1C | i | -0.69
O=C(O)c1cccc(-c2ccc(/C=C3/SC(=Nc4ccccc4)N(Cc4cccnc4)C3=O)o2)c1 | i | -1.3
COc1ccc2c(CC(=O)Nc3ccccc3OC)coc2c1 | i | -0.63
COc1ccc(C2c3cc(OC)c(OC)cc3CCN2C(=O)c2ccccc2Br)cc1OC (stereo unspecified) | i | 1.9
Cc1oc(-c2ccc(Cl)cc2)nc1CN1CCCC(C(=O)NCc2ccccn2)C1 (stereo unspecified) | i | -0.38
COC(=O)c1ccccc1NC(=O)c1sc(Cl)nc1C | i | 0.04
Cc1ccc(S(=O)(=O)N2CCN(C(=O)c3ccco3)CC2)c(C)c1 | i | 3.6
CCOC(=O)/C(=N\Nc1ncnc2ccccc12)c1ccc(C)cc1 | i | -0.29
CCN1CCc2c(sc(N)c2C#N)C1 | i | 1.4
Cc1cccc(Nc2c([N+](=O)[O-])c(=O)n(C)c3ccccc23)c1 | i | 0.73
CCOCC(=O)N1CCN(c2ccc(F)cc2)CC1 | i | 1.7
CCNC(=O)NC(=O)C(C)Sc1nc2cc(C(=O)OC)ccc2c(=O)n1-c1ccccc1 (stereo unspecified) | i | -0.66
Cc1c(Cc2ccccc2)c(=O)oc2cc(OCC(=O)N3CCC(C(N)=O)CC3)ccc12 | i | 0.36
CCCC(=O)Nc1c(-c2cccs2)c(=O)c2ccccc2n1C | i | -0.03
Cc1ccc(-c2[nH]nc3c2C(c2cccnc2)C(C#N)=C(N)O3)cc1 (stereo unspecified) | i | -0.4
CCN1CCN(S(=O)(=O)c2ccc(Cl)c(C(=O)NCCc3ccccc3)c2)CC1 | i | 1.6
O=C(CNC(=O)c1ccccc1F)Nc1ccccc1C(F)(F)F | i | -1.8
CC1=NN(C(N)=S)C(=O)C1N=Nc1ccccc1Cl (stereo unspecified) | i | -0.72
COc1ccc(-c2cc(=O)c(C(=O)c3ccc(C)cc3)n[nH]2)cc1 | i | -1.6
Cc1cccc2cc(COC(=O)COc3ccccc3)c(=O)[nH]c12 | i | 1.5
CN(CC(=O)Nc1cccc(Cl)c1)S(=O)(=O)c1ccc2[nH]c(=O)oc2c1 | i | 0.11
CC1CN(C(=O)Nc2cccc(Cl)c2)C2(CCCCCC2)O1 (stereo unspecified) | i | -0.46

Entries of single compounds, looked up by structure:
CC1=NN(C(N)=S)C(=O)C1N=Nc1ccccc1Cl (stereo unspecified) across the screens: KCNQ2 inh: i; KCNQ2 inh baseline: -0.72
CSc1cccc(N=C2C(=O)Nc3ccccc32)c1 across the screens: KCNQ2 inh: i; KCNQ2 inh baseline: -1.8
COc1ccc(N2C(=O)c3ccccc3NC2c2ccc(OC)c(Cn3cc([N+](=O)[O-])cn3)c2)cc1 (stereo unspecified) across the screens: KCNQ2 inh: i; KCNQ2 inh baseline: 0.26

The results go on:
SMILES | KCNQ2 inh | KCNQ2 inh baseline
O=C(NC(=S)Nc1ccc(S(=O)(=O)Nc2ncccn2)cc1)c1cccc(Br)c1 | i | 2.2
CC1Cc2ccccc2N1CC(=O)NCc1ccccc1Cl (stereo unspecified) | i | 0.35
COc1ccc(OCc2cccc(C(=O)Nn3cc([N+](=O)[O-])cn3)c2)cc1 | i | 0.01
CCOC(=O)C(CCCOc1ccccc1)C(=O)OCC | i | -0.91
O=C(NCCc1ccccn1)c1ccc(OC(F)F)cc1 | i | -0.12
Cc1ccc(S(=O)(=O)C(C#N)c2nc3ccccc3nc2N2CCN(C)CC2)cc1C (stereo unspecified) | i | 1.8
O=C(Oc1ccc2ccccc2c1)c1ccccc1 | i | -1.8
Oc1ccc[n+](CCCCC[n+]2cccc(O)c2)c1 | i | 1.6
CC(O)CCC(=O)NNC1=CC(=O)CC(C)(C)C1 (stereo unspecified) | i | 0.01
CCCCOP(=O)(OCCCC)C(O)c1ccc(N(C)C)cc1 (stereo unspecified) | i | -0.24
CC(C)CC(=O)NC(=S)Nc1ccc(N2CCCC2)c(Cl)c1 | i | -0.28
COc1ccccc1N1CCN(C(=O)c2ccc(Cl)c(S(=O)(=O)N3CCOCC3)c2)CC1 | i | 0.08
COc1ccc(S(=O)(=O)n2cnc3cc(C)c(C)cc32)cc1 | i | -0.15

Only part of the results is shown; count on the stated rates, not on these rows.
